# SARS PLpro yeast: qHTS of Yeast-based Assay for SARS-CoV PLP; Potency, µM (titrated, usually from 32.9 µM), for inactives: at the highest dose activity, positive = growth rescue; S. cerevisiae expressing SARS-CoV PLpro, growth rescue; control for the full effect not named in the record; 330,000 compounds, 0.19% hits; AID 485353, 2010; active means well fitted rising curve with a large enough effect; inconclusive means small, poorly fitted or top-dose-only effect; inactive means no such curve, though single readings can be large or run the other way; also: 0% is about no effect; nearly all actives have a fitted effect of over 55% in size; growth read by luminescence after 48 h
# Cruzain inh noDet: qHTS Assay for Promiscuous and Specific Inhibitors of Cruzain (without detergent). 200,000 compounds, 2.3% hits. Cruzipain (Trypanosoma cruzi), P25779. Potency, µM, without a hit: max response, negative = inhibition, usual class: inhibitors. AID 1476, 2009. purified cruzain, Z-FR-AMC fluorescence, no detergent;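 also: plate controls were enzyme without inhibitor for no effect and buffer without enzyme for full effect; nearly all actives have a fitted effect of over 40% in size; top concentration of the series not given in the record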
# Target sequence (P25779 123-467 limits assumed): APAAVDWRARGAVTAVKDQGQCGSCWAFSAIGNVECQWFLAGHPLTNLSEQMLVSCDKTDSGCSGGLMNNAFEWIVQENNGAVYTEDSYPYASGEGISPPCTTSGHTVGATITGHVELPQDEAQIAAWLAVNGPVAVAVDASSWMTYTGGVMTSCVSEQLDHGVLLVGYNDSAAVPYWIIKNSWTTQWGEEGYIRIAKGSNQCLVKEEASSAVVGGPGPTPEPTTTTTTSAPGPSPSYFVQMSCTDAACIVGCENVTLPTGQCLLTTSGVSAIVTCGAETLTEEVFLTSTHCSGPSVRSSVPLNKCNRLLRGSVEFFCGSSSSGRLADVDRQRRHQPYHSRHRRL
#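 Detergent-free condition (0.00005% Triton X-100) in acetate buffer pH 5.5 with DTT. 1.5 nM enzyme and compound were pre-mixed 15 min, then 2 uM Z-FR-AMC substrate added; reaction progress from fluorescence change between first and third reads (60 s).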
# MARV entry inh: qHTS for inhibitors of binding or entry into cells for Marburg Virus. AID 540276, 2011. 300,000 compounds, 1.8% hits. Potency, µM (series often up to 37.8 µM), for inactives: top-dose activity change, negative = inhibition, hits mostly inhibitors. Marburg virus pseudotyped entry inhibition, cell reporter; control for the full effect not named in the record; about a third of the inactives were read at about 46 µM; active = well fitted inhibition curve with a large enough effect; inconclusive = small, poorly fitted or top-dose-only effect, or effect the other way; inactive = flat fitted curve, though single readings scatter; tested in HEK293 cells; about a fifth of its hits are not listed in these tables; also: % is scaled to controls: 0 for no effect and ±100 for the full control effect; luciferase read-out
# 2A StopGo: High Throughput Screening for Foot and Mouth Disease Virus Antivirals; human cells with a luciferase reporter of 2A StopGo recoding; control for the full effect not named in the record; Potency, µM (titrated, usually from 57.9 µM), for inactives: top-dose signal change, negative = less light; AID 1159524, 2015; 410,000 compounds, 1.2% hits; active = well fitted falling curve with a large enough effect; inconclusive = small, poorly fitted or top-dose-only effect; inactive = no such curve, though single readings can be large or run the other way; tested in HEK293T cells; also: % is scaled to controls: 0 for no effect and ±100 for the full control effect; nearly all actives have a fitted effect of over 45% in size; luciferase light after 4 h
# RE007 growth inh: qHTS Assay for Inhibitors of the HIV-1 protein Vpr. Potency, µM (highest dose often 92.2 µM), for inactives: at the top dose activity change, negative = less growth. 360,000 compounds, 0.21% hits. S. pombe RE007 Vpr strain, BacTiter-Glo ATP luminescence, 24 h; control for the full effect not named in the record; active = well fitted falling curve with a large enough effect; inconclusive = small, poorly fitted or top-dose-only effect; inactive = no such curve, though single readings can be large or run the other way;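 also: % is scaled to controls: 0 for no effect and ±100 for the full control effect; nearly all actives have a fitted effect of over 50% in size; the assay follows cell death caused by Vpr and the record does not say whether a fall means rescue or toxicity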
#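 Fission yeast RE007 carrying one integrated HIV-1 vpr copy, seeded at OD 0.01 in PMG+AL medium with 23 nL pinned compound. Grown 24 h at 30 degrees; viability read by BacTiter-Glo luminescence after 5 min.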
# NS1 inh: qHTS Assay for Inhibitors of Influenza NS1 Protein Function. S. cerevisiae slowed by influenza A NS1, growth recovery by OD600. Potency, µM (titrated, usually from 46.1 µM), inactives show at the top dose activity, positive = more growth. 270,000 compounds, 0.4% hits. AID 2326, 2010; active means well fitted rising curve with a large enough effect; inconclusive means small, poorly fitted or top-dose-only effect; inactive means no such curve, though single readings can be large or run the other way; also: nearly all actives have a fitted effect of over 50% in size
#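 In this qHTS, NS1 from influenza A is expressed in budding yeast, where it slows growth. Cells are switched from glucose to 2% galactose medium (pH 6.0, -URA), treated with compound, and growth recovery is read at OD600.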
# Cruzain inh Det: qHTS Assay for Promiscuous and Specific Inhibitors of Cruzain (with detergent); Cruzipain (Trypanosoma cruzi), P25779; purified cruzain, Z-FR-AMC fluorescence, 0.01% Triton; Potency, µM, inactives show max response, negative = inhibition, usual class: inhibitors; 200,000 compounds, 0.43% hits; AID 1478, 2009;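 also: plate controls were neutral wells for no effect and buffer without enzyme for full effect; nearly all actives have a fitted effect of over 40% in size; top concentration of the series not given in the record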
#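 Z-FR-AMC hydrolysis (2 uM substrate) by cruzain (1.5 nM) monitored kinetically at ex 360/em 450 nm after 15 min room-temperature compound exposure; 0.01% Triton X-100, pH 5.5, 5 mM DTT.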
# LASV entry inh: qHTS for Inhibitors of binding or entry into cells for Lassa Virus; 300,000 compounds, 1.2% hits; AID 540256, 2011; Lassa virus pseudotype entry inhibition, cell reporter; control for the full effect not named in the record; Potency, µM (doses to about 37.9 µM), inactives show at the highest dose activity change, negative = inhibition, actives largely listed as inhibitors; active means well fitted inhibition curve with a large enough effect; inconclusive means small, poorly fitted or top-dose-only effect, or effect the other way; inactive means flat fitted curve, though single readings scatter; tested in HEK293 cells; also: % is scaled to controls: 0 for no effect and ±100 for the full control effect; nearly all actives have a fitted effect of over 50% in size; luciferase read-out
# Starred values were filed as active, the others as inactive; ? = inconclusive; . = not tested or not shown; & = joins results of further samples; [ ] = another dose, or the depositor's remark. Unless noted, calls follow the shape of the dose curve; as a rule, active = well fitted curve in the direction sought with a large enough effect; inconclusive = small, poorly fitted or top-dose-only effect, or another doubt; inactive = no such curve, though single readings can be large; an effect the other way counts as inactive or inconclusive. Potency is read from the fitted curve at half-maximal effect.
SMILES,SARS PLpro yeast,Cruzain inh noDet,MARV entry inh,2A StopGo,RE007 growth inh,NS1 inh,Cruzain inh Det,LASV entry inh
Cc1ccc(S(=O)(=O)/N=C/c2ccc(N(C)C)cc2)cc1,-18%,-6%,5%,-6%,5%,-26%,-8.0%,5%
Cc1cnc2cc([N+](=O)[O-])ccc2n1,-3%,-4%,?,19%,-2%,0%,-3.1%,4%
COc1ccc(C2CC(c3ccccc3)=NN2C(=O)COC(=O)COc2ccccc2)cc1 (stereo not given),0%,.,30%[46.1 µM],6%,-4%,19%,.,18%[46.1 µM]
COc1ccc(C(=O)/C=C/c2cn(CC(O)CN3CCN(C)CC3)c3ccccc23)cc1OC (stereo not given),0%,.,?,-5%,-4%,8%,.,-25%
COC(=O)c1c(NC(=O)COC(=O)c2ccc(NC(=O)CC#N)cc2)sc2c1CCCCC2,0%,.,-1%[46.1 µM],0%,6%,9%,.,10%
CCOc1ccc(CCNC(=O)C2CC(=O)N(Cc3ccc(OC)cc3)C2)cc1OCC (stereo not given),1%,.,.,-1%,8%,-16%,.,.
CCOc1ccc2nc(SCC(=O)N(CC(C)C)c3c(N)n(CC(C)C)c(=O)[nH]c3=O)[nH]c2c1,.,.,0%,-7%,2%,.,.,3%
Cc1nc(NC(=O)CSc2nc3cccnc3n2Cc2ccccc2)sc1C,6%,-9%,?,?,17%,-2%,-1.6%,?
COc1ccc(Cc2nnc(SCC(=O)Nc3ccc(N4CCOCC4)cc3)n2C)cc1,1%,.,20%[46.1 µM],-9%,-4%,-3%,.,-1%[46.1 µM]
COc1ccc(OCC(=O)NC2CCCCCCC2)cc1,-1%,.,?,36%[activator],-2%,-15%,.,7%[46.1 µM]
CCOc1ccc(N2CC(NC(=O)Cc3ccccc3)CC2=O)cc1 (stereo not given),.,-8%,.,44%[activator],.,.,-1.2%,-6%[46.1 µM]
Cc1nn(-c2ccccc2)c(C)c1NC(=O)CCl,15%,5%,?,-25%,12%,1%,-0.2%,-24%
Cc1ccccc1N1CCN(S(=O)(=O)Cc2ccccc2)CC1,-4%,.,.,-4%,-8%,-8%,.,.
Cc1ccc(/C(N)=N/OC(=O)Cc2ccccc2)cc1,-9%,-9%,22%,50%[activator],-9%,1%,-3.4%,?
CC(=O)Nc1ccc(CN2CCN(Cc3ccc(F)c(F)c3)C(CCO)C2)cc1 (stereo not given),0%,.,3%[46.1 µM],-13%,8%,-3%,.,-2%
COc1cc2c(cc1OC)CN(C(=O)NS(=O)(=O)c1ccc(C)cc1)CC2,10%,-9%,-2%,6%,9%,4%,1.8%,12%
COc1ncnc2sc3c(c12)CCCC3,1%,-8%,?,3%,12%,-16%,0.9%,-5%
CCCCn1c(-c2csc(C(C)C)c2)n[nH]c1=S,-15%,1%,?,-28%,-1%,-43%,-5.6%,?
COc1cc(C(=O)NCCOC(=O)c2cccc(N(C)C)c2)cc(OC)c1OC,1%,.,-10%,-14%,4%,-1%,.,?
NC(=O)c1ccccc1OCC(=O)NS(=O)(=O)c1ccc(Cl)cc1,4%,-5%,?,-7%,15%,-1%,2.0%,1%
N/C(=N\NS(=O)(=O)c1ccccc1)c1ccccn1,.,.,9%[46.1 µM],12%,54%,.,.,?
O=c1[nH]c2ccccc2[n+]([O-])c1-c1ccccc1,2%,.,3%[46.1 µM],15%,-5%,.,.,8%
COc1c(C)cc(C(=O)C2CCCN(Cc3cccc(O)c3)C2)cc1C (stereo not given),?,.,.,0%,3%,-13%,.,.
NC(=O)C1CCN(c2nnnn2-c2ccccc2)CC1,6%,3%,6%,-10%,-2%,8%,5.6%,1%
CCOC(=O)CC1COCCN1Cc1cn(C)nc1-c1ccccc1F (stereo not given),0%,.,-4%[46.1 µM],-9%,2%,?,.,1%[46.1 µM]
# The results go on:
SMILES,SARS PLpro yeast,Cruzain inh noDet,MARV entry inh,2A StopGo,RE007 growth inh,NS1 inh,Cruzain inh Det,LASV entry inh
COC(=O)/C(=C\C(=O)c1ccccc1)Nc1ccc(OC)cc1,0%,.,3%[46.1 µM],25%,?,-6%,.,-7%
N/C(=N\N=C/c1ccc(-c2ccc(O)c(C(=O)O)c2)o1)N[N+](=O)[O-],-3%,-7%,-10%,-10%,-15%,3%,-9.9%,7%
Cn1nc(CC(=O)Nc2cccnc2N2CCOCC2)c2ccccc2c1=O,13%,-2%,.,.,.,8%,2.2%,.
CCN(CC)S(=O)(=O)c1ccc(N2CCCCC2)c(NC(=O)C2=COCCO2)c1,1%,.,?,-13%,8%,.,.,?
Cc1nc2ccccc2n1C1CCN(C(=O)Nc2ccccc2)CC1,0%,.,8%[46.1 µM],10%,-7%,-3%,.,-3%[46.1 µM]
COc1cccc(OC)c1OC(=O)/C=C/c1ccc(C)o1,3%,.,-18%[46.1 µM],1%,-9%,-12%,.,13%[46.1 µM]
N#Cc1ccccc1OCC(=O)N1CCN(C(=O)c2ccco2)CC1,13%,.,?,0%,-10%,-9%,.,21%[46.1 µM]
COc1ccc(CC(=O)Nc2ccccc2C(=O)N2CCCC2)cc1,0%,.,-10%,-20%,12%,7%,.,-7%
O=C(NC(=S)NC1CCCc2ccccc21)c1ccco1 (stereo not given),-12%,.,?,-4%,-18%,-5%,.,-24%
COc1ccc(N2CCN(S(=O)(=O)CCNC(=O)CCCc3ccccc3)CC2)cc1,-1%,.,0%[46.1 µM],-10%,-15%,.,.,-3%
O=C(/C=C/c1ccc(OCCCF)cc1)NCc1ccc(Cl)cc1,0%,-10%,-8%,41%[activator],25%,1%,0.8%,-12%
CC(O)C1CCC2C3CC[C@H]4CC(O)CCC4(C)C3CC3(OCCO3)C12C (stereo not given in full),-3%,?,-10%,.,14%,-81%,-5.0%,-8%
O=C(c1ccncc1)N1N=C2CCCCCC2C1(O)C(F)(F)F (stereo not given),0%,.,6%,-3%,-14%,2%,.,12%
O=C(O)CSc1nnc2n(-c3ccccc3)c(=O)c3ccccc3n12,4%,.,9%[46.1 µM],9%,2%,-4%,.,26%[46.1 µM]
CC1CCCCC1NC(=O)C1CCN(S(=O)(=O)c2cccc3nsnc23)CC1 (stereo not given),0%,?,10%,.,6%,-3%,4.8%,-1%
CN(C)c1cccc(C(=O)NCc2ccccc2Cl)c1,-1%,.,?,38%[activator],1%,2%,.,-26%[46.1 µM]
COc1ccc(Cl)cc1NC(=O)CN(C)CC(=O)Nc1ccccc1-c1ccccc1,-6%,.,?,-18%,-4%,.,.,?
O=C(Oc1cccc2c(O)cccc12)c1ccccc1,-15%,-2%,13%,23%,?,-143%,-11%,-3%
CC(C)CNC(=O)CCc1c[nH]c2ccccc12,-5%,-2%,16%,0%,8%,7%,0.5%,?
Cc1cnccc1CN(C)Cc1cn(C)nc1-c1cccc(Cl)c1,-1%,.,?,-9%,-32%,1%,.,?
Cc1ccc2c(c1)c1c3n2CCN(C(=O)c2cccc(C(F)(F)F)c2)C3CCC1 (stereo not given),.,0.63µM*,-28%[46.1 µM],-25%,.,.,-4.7%,-14%[46.1 µM]
COC(=O)/C(=C/Nc1ccccc1)[N+](=O)[O-],-2%,8%,3%,.,5%,2%,-3.6%,13%
O=S(=O)(Nc1ccc(S(=O)(=O)Nc2nccs2)cc1)c1ccc(Br)cc1,?,.,1%[46.1 µM],19%,3%,12%,.,18%[46.1 µM]
CCCCCCOC(=O)C[N+](C)(C)CCOC1CC2CCC1(C)C2(C)C (stereo not given),-18%,2%,12%&12%,-5%,14%,-3%,0.5%,13%
Cc1ccc(C)c(NC(=O)CN(C)C(C)C(=O)N2CC(C)CC(C)C2)c1 (stereo not given),-4%,.,-20%[46.1 µM],-14%,-10%,.,.,-5%
# More entries
SMILES,SARS PLpro yeast,Cruzain inh noDet,MARV entry inh,2A StopGo,RE007 growth inh,NS1 inh,Cruzain inh Det,LASV entry inh
CCN(CC(=O)NCc1ccc(Cl)cc1)C(=O)c1ccc(S(=O)(=O)NCc2ccco2)cc1,4%,.,-13%,-14%,6%,2%,.,2%
CCOc1ccc(NC(=O)N2CCC(c3nc4ccccc4[nH]3)CC2)cc1,3%,.,?,-15%,-3%,.,.,4%[46.1 µM]
COc1cc(/C=N/NC(=O)c2ccc(Cl)c(S(N)(=O)=O)c2)ccc1OCC(N)=O,-1%,.,5%[46.1 µM],-19%,9%,3%,.,-11%
N#CC(C(=O)c1ccco1)c1ccccn1 (stereo not given),-3%,-11%,?,.,4%,-22%,-3.9%,13%
C=CCOc1ccccc1CN1CCC(Oc2cc(C(=O)NC3CC3)ccc2OC)CC1,-2%,.,?,-15%,0%,-11%,.,-13%
Cc1ccc(S(=O)(=O)N2CCOCC2)cc1C(=O)OCC(=O)NC1CCS(=O)(=O)C1 (stereo not given),13%,5%,9%,-20%,-11%,-5%,1.0%,?
CCOc1ccc(CCNC(=O)c2nnn(CC(=O)Nc3ccccc3C)c2N)cc1OCC,5%,.,?,28%,5%,-6%,.,-1%[46.1 µM]
CCc1ccc(NC(=O)CCn2c(=O)c3cccn3c3ccccc32)cc1,-3%,-1%,?,-16%&-7%,-10%,14%,-7.2%,?
Cc1ccc(NC(=O)C(=O)NNC(=O)c2ccccc2C)cc1Cl,-10%,-18%,?,2%,-1%,-12%,4.4%,0%
Cc1ccc(S(=O)(=O)NCCn2cnc([N+](=O)[O-])n2)cc1,0%,.,-3%[46.1 µM],-16%,-19%,28%,.,13%
COc1ccc(N2CC(C(=O)N3CCC4(CC3)CC(=O)c3ccccc3O4)CC2=O)cc1 (stereo not given),-1%,.,0%,?,8%,.,.,-8%
CCCC(=O)Nc1ccc(NC(=O)c2ccco2)c(OC)c1,0%,0%,?,71%[activator],8%,-1%,2.6%,?
O=C(CCCOc1ccccc1)NCCc1ccccc1,-2%,.,-8%[46.1 µM],25%,13%,-5%,.,11%

# An unsorted share of the library; any-hit rate near 4.7%.
